# GLA inh pH 4.5 – qHTS Assay for Inhibitors of Human alpha-Galactosidase at pH 4.5; Alpha-galactosidase A (Homo sapiens), P06280; purified enzyme, 4-MU-alpha-Gal fluorescence, pH 4.5; activity change, negative = inhibition, % at 105 µM; 230,000 tested, under 10 active; AID 1467, 2008; inconclusive = small, poorly fitted or top-dose-only inhibition, or a rising curve; inactive = flat fitted curve, though single readings scatter; no compound was filed as active;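 also: 0% = full activity with enzyme and -100% = basal without enzyme; dose as in the result columns while the protocol names 77 µM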
# Rango complex inh – qHTS Assay for Inhibitors of Rango (Ran-regulated importin-beta cargo) - Importin beta complex formation | Importin subunit beta-1 (Homo sapiens), Q14974 | Rango CFP/YFP FRET sensor + importin beta, 45 min | Potency, µM (highest dose often 92.2 µM), without a hit: at the highest dose inhibition of complex formation | 340,000 compounds, 0.031% hits | AID 540263, 2011; active = rising FRET ratio curve, often small or poorly fitted; inconclusive = mostly compound fluorescence or quenching in the first reads; inactive = flat curves in all reads;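 also: potency is read from the fitted curve at half-maximal effect; 0% = DMSO wells and 100% = buffer wells lacking importin beta; nearly all actives have a fitted effect of over 15% in size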
# Target sequence (Q14974 whole entry, looked up): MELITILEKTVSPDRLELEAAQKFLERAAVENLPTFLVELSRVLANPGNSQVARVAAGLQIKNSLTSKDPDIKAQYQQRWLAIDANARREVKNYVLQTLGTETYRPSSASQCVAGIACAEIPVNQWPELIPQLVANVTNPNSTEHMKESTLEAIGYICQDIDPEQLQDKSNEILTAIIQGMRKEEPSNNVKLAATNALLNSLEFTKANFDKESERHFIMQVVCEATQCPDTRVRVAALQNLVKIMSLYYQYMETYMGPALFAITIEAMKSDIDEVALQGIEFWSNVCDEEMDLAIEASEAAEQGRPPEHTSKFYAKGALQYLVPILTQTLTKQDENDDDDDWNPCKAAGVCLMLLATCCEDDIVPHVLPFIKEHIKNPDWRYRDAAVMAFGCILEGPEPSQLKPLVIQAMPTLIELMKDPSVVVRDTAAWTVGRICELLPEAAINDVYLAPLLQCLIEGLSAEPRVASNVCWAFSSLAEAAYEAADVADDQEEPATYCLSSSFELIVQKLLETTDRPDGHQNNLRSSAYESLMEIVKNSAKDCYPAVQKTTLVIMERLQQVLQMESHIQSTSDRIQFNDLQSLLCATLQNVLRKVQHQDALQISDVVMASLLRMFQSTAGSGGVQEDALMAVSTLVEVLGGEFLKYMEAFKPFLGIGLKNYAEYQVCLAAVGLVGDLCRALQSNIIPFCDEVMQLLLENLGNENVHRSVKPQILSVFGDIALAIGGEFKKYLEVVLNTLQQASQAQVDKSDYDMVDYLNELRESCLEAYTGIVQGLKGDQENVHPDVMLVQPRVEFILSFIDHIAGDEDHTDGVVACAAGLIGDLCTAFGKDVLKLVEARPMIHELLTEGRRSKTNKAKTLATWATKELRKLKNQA
#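 FRET biosensor (snurportin 1 IBB flanked by EYFP and cerulean), 50 nM, with compound 5 min, then 0.125 microM importin beta in PBS, 1 mM DTT, 0.02% Tween-20, 0.1% BSA. CFP/YFP ratio read after 45 min at room temperature; pre-read flags interference.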
# miR-21 FLuc – qHTS Assay for Modulators of miRNAs and/orActivators of miR-21. HeLa miR-21 FLuc reporter, luciferase, 48 h. Potency, µM (doses to about 38.3 µM), without a hit: top-dose reporter change, positive = more light. 340,000 tested, under 10 active; active = well fitted rising curve with a large enough effect; inconclusive = small, poorly fitted or top-dose-only effect; inactive = no such curve, though single readings can be large or run the other way;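 also: % of control where 0% means no effect; miR-21 action dims this reporter so a rising signal means less miR-21 action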
#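 Luminescence from a firefly luciferase reporter carrying a miR-21 binding site downstream, stably expressed under a CMV promoter in HeLa cells that make miR-21 endogenously, reports miRNA modulation after 48 h compound exposure up to approximately 40uM final.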
# Rango release inh – qHTS Assay for Inhibitors of RanGTP induced Rango (Ran-regulated importin-beta cargo) - Importin beta complex dissociation. 340,000 compounds, 0.071% hits. Biochemical FRET Rango-importin beta, RanGTP-induced dissociation. AID 540253, 2011. Potency, µM (doses to about 46.1 µM), for inactives: at the top dose activity change, negative = inhibition. Snurportin-1 (Homo sapiens) + GTP-binding nuclear protein Ran (Homo sapiens) + Importin …; active means falling FRET ratio curve, often poorly fitted, with flat reads before Ran was added; inconclusive means other falling curves, or compound fluorescence or quenching; inactive means flat or rising ratio curve;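 also: potency is read from the fitted curve at half-maximal effect; % of control where 0% means no effect; nearly all actives have a fitted effect of over 45% in size; -100% = wells without RanGTP and RCC1; the record marks most hits as doubtful in a second field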
#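 Recombinant Rango FRET biosensor (EYFP–snurportin 1 IBB–cerulean CFP10) at 0.1 uM premixed with 0.25 uM importin beta in PBS, 1 mM DTT, 0.02% Tween-20, 0.1% BSA. Compound added 5 min; RanGTP-RCC1 (0.6 uM Ran, 2 mM GTP, 0.2 uM RCC1) then triggers release, read at 45 min.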
# * marks the source's active call; other numbers are inactive results; u = inconclusive; x = no result given.
Compound | GLA inh pH 4.5 | miR-21 FLuc | Rango release inh | Rango complex inh
Cc1cc(C(F)F)n2nc(C(=O)Nc3ccc(F)cc3F)nc2n1 | 0 | -5% | 1% | -0.7%
OCCNc1nc(C2CC2)nc2c1nnn2Cc1ccccc1Cl | -6 | -16% | 9% | -4.4%
Cn1c(-c2c(N)n(-c3ccccc3)c3nc4ccccc4nc23)nc2ccccc21 | 4 | -7% | u | u
O=C(NC(=S)NNC(=O)c1ccccc1O)c1ccccc1 | x | 4% | 0% | 8.5%
CCOC(=O)CNC(=O)Cn1cnc2c(nnn2-c2ccc(C)cc2)c1=O | 3 | -3% | 22% | -6.3%
N#Cc1cccc(-n2nnnc2-c2ccccn2)c1 | -9 | -10% | 2% | 0.3%
N=C1C(c2ccccc2)=C(O)CN1c1cccc(S(=O)(=O)N2CCOCC2)c1 | -8 | -2% | -10% | -2.6%
COc1ccc(S(=O)(=O)N2CCC(C(=O)NCCc3ccc4c(c3)OCO4)CC2)cc1 | -18 | 0% | -13% | u
COc1ccc(C(=O)C2CCCN(Cc3cccc4c3OCO4)C2)cc1OC (stereo not given) | -6 | 1% | 2% | -5.1%
Cc1ccc(S(=O)(=O)N2CCCCC2)cc1C(=O)N1C(C)CCCC1C (stereo not given) | x | x | -12% | -3.6%
Cc1c(NC(=O)CSc2ncnc3ccccc23)c(=O)n(-c2ccccc2)n1C | 9 | -5% | -8% | -2.4%
Cc1csc2nc(O)c(C(=O)NCCCN3CCCC3=O)c(=O)n12 | x | x | -1% | 1.6%
Cn1c(=O)n(C)c2cc(N3CCOCC3)c(NC(=O)c3ccc(F)cc3)cc21 | x | 1% | 9% | 2.7%
COc1ccc(NCC(=O)NN=C2CCS(=O)(=O)c3ccc(F)cc32)cc1 | x | x | 1% | 8.2%
COc1ccc([N+](=O)[O-])cc1N(CC(O)CN1CCCCC1)S(=O)(=O)c1ccccc1 (stereo not given) | 6 | 1% | 3% | 3.1%

# The last two compounds of the part before open the next one.
Compound | GLA inh pH 4.5 | miR-21 FLuc | Rango release inh | Rango complex inh
COc1ccc(NCC(=O)NN=C2CCS(=O)(=O)c3ccc(F)cc32)cc1 | x | x | 1% | 8.2%
COc1ccc([N+](=O)[O-])cc1N(CC(O)CN1CCCCC1)S(=O)(=O)c1ccccc1 (stereo not given) | 6 | 1% | 3% | 3.1%
Cc1nnc2ccc(-c3ccc(NS(=O)(=O)c4ccccc4[N+](=O)[O-])cc3)nn12 | x | x | -1% | u
Cn1nnc(C(O)CN2CCOCC2)n1 (stereo not given) | 1 | -5% | 12% | 1.3%
COc1cccc(C(=O)Nc2ccc(NC(=O)C3C4C=CC(C4)C3C(=O)O)cc2)c1 (stereo not given) | x | -35% | 40% | 1.6%
CCc1c(C)sc(NC(=O)c2ccccc2[N+](=O)[O-])c1C(N)=O | -7 | -17% | 11% | -2.5%
O=C(C1=C(O)C(=O)N(CCN2CCOCC2)C1c1cccc(F)c1)c1cc2ccccc2o1 (stereo not given) | x | -3% | -28% | -0.7%
Cc1ccc(C)c(C(=O)CCC(=O)Nc2cccnc2)c1 | 2 | -1% | -15% | -3.0%
Brc1ccccc1-c1csnn1 | -4 | 0% | 1% | -1.3%
Cn1c(SCC(=O)N2CCc3ccccc3C2)nnc1-c1ccncc1 | 8 | -2% | 7% | -1.5%
O=C1C=C(NCc2ccc(Cl)cc2Cl)C2(CCCCC2)O1 | 0 | 7% | 3% | 1.3%
Cc1cc(C)c(NC(=O)CS(=O)CC(=O)NCCCc2ccccc2)c(C)c1 (stereo not given) | 2 | 1% | -3% | 3.1%
O=C(NNC1=NCCC1)c1cccc(S(=O)(=O)N2CCCC2)c1 | 2 | -4% | -2% | -0.3%
CCCCCc1nnc(NC(=O)CN2C(=O)C3CCCCC3C2=O)s1 (stereo not given) | x | -3% | 2% | 3.2%
Cc1cccc2cc(CN(CCCN3CCOCC3)Cc3nnnn3C(C)(C)C)c(=O)[nH]c12 | 1 | -1% | u | -1.3%
CN(C)CCNC(=O)Cn1nc(-c2ccc(Cl)cc2)ccc1=O | 12 | 0% | 18% | -0.5%
Brc1cc2c(cc1C1Nc3ccccc3C3C=CCC31)OCO2 (stereo not given) | -20 | 4% | -1% | -3.4%

# Following part:
Compound | GLA inh pH 4.5 | miR-21 FLuc | Rango release inh | Rango complex inh
COc1cc(/C=C2\SC(=Nc3ccc(Cl)c(C(=O)O)c3)NC2=O)c(Br)c(Br)c1O | x | -2% | u | u
O=C(N1CCC(O)(c2cccnc2)CC1)C12CC3CC(CC(C3)C1)C2 | 3 | -1% | -2% | 7.3%
C#CCn1c(=NC(=O)c2ccccc2[N+](=O)[O-])sc2cc(S(C)(=O)=O)ccc21 | 5 | -14% | u | 1.9%
O=S(=O)(N/N=C\c1ccc2c(c1)OCO2)c1ccc(F)cc1 | x | -2% | -6% | -0.8%
Cc1cccc(NC(=O)C2CCCN(C(=O)NCc3ccccc3)C2)c1C (stereo not given) | x | 4% | -9% | -2.9%
CCCn1c(=O)c2[nH]cnc2n(-c2ccccc2C)c1=O | -6 | -21% | 1% | -5.2%
Fc1ccc2nc3n(c2c1F)CCCCCC3 | 3 | -3% | 4% | 2.9%
CCOC(=O)C(C(=O)N(C)Cc1ccccc1)C1CCCCC1 (stereo not given) | x | 0% | 2% | -0.1%
Cc1ccc(-c2nn(-c3ccccc3)cc2C(=O)O)o1 | 3 | 3% | x | x
CC(C)NC(=O)C(=O)NC1CCCCCC1 | 3 | -1% | 4% | 2.0%
CCOP1(=O)C=C(C(C)(C)C)OC1c1ccc(F)cc1 (stereo not given) | 1 | 0% | 19% | -0.5%
NC(=O)C1(N2CCCCC2)CCN(Cc2ccccc2Cl)CC1 | -3 | -8% | -8% | -3.5%
Cc1ccc(NC(NC(=O)c2ccccn2)C(Cl)(Cl)Cl)cc1 (stereo not given) | -3 | 2% | 0% | 2.1%
NS(=O)(=O)c1ccc(NC(=O)c2c(Cl)cccc2Cl)cc1 | 2 | -1% | -19% | -1.4%
Cc1ccc(C)c(NC(=O)CSc2nc3[nH]ncc3c(=O)[nH]2)c1 | 5 | 14% | 14% | -3.7%

# Continued.
Compound | GLA inh pH 4.5 | miR-21 FLuc | Rango release inh | Rango complex inh
CN1CCO/C1=C(\C(Cl)=C(Cl)Cl)[N+](=O)[O-] | -1 | -3% | 6% | 3.0%
O=C(NCCSc1ccccc1)c1ccc(CN2CCOCC2)cc1 | 4 | -35% | 2% | 0.3%
C/C(=C\C=C(C#N)C#N)c1cc(C#N)c(N)o1 | 2 | -1% | -23% | u
CC(C(=O)NCc1cccnc1)c1ccc([N+](=O)[O-])cc1 (stereo not given) | x | 0% | -18% | 6.2%
Cc1cc(NC(=O)CSc2nc3ccccc3n2CC(=O)N2CC(C)CC(C)C2)no1 (stereo not given) | 1 | -5% | 9% | -3.0%
N#Cc1c(SCC(=O)Nc2nncs2)sc2c(O)cc(=O)[nH]c12 | x | 15% | -1% | u
COc1ccc(OCC(=O)Nc2nc3ccccc3[nH]2)cc1 | -16 | -40% | 5% | 3.8%
O=C(COc1ccccc1)N(Cc1cccs1)C1CCS(=O)(=O)C1 (stereo not given) | 1 | -1% | -2% | 6.7%
Cc1ccc(C2Nc3ccc4ccccc4c3C3=C2C(=O)CC(C)(C)C3)o1 (stereo not given) | -11 | -15% | u | -3.7%
COC(=O)Cc1c(OC)ccn(CCc2c[nH]c3ccccc23)c1=O | -1 | -55% | -21% | -1.0%
O=C(NCCc1nnc2ccccn12)c1cccs1 | x | -47% | -5% | 2.5%
COc1ccccc1C(=O)NCC(=O)OCC(=O)c1ccc2c(c1)-c1ccccc1C2 | 7 | -21% | 4% | -3.5%
O/N=C(/c1ccc(F)cc1)C1CC1c1c(F)cccc1Cl (stereo not given) | x | -5% | -11% | -6.6%
CC(/C=N/n1c(-c2ccncc2)n[nH]c1=S)=C\c1ccco1 | 3 | 17% | 1% | u
CC(=O)Nc1ccc(C(=O)Nc2ccc(S(=O)(=O)N3CCCCC3)cc2)cc1 | x | 4% | -10% | 0.2%

# Continued.
Compound | GLA inh pH 4.5 | miR-21 FLuc | Rango release inh | Rango complex inh
O=C(C1CCN(S(=O)(=O)c2ccccc2[N+](=O)[O-])CC1)N1CCOCC1 | 2 | 3% | 3% | -3.3%
CCN(CC)CCC#CC1(O)c2ccccc2-c2ccccc21 | x | 0% | -1% | -6.4%
O=C(Cn1nc(C(=O)O)c2ccccc2c1=O)Nc1cccc(S(=O)(=O)N2CCCC2)c1 | x | x | 8% | 6.9%
O=C(Oc1oc(-c2ccco2)nc1C=Nc1ccccc1)c1ccoc1 | -7 | -24% | 6% | u
FC(F)(F)c1ccnc(NCc2ccc(Cl)cc2)n1 | x | -2% | 16% | 0.6%
Cc1oc2cc(Br)c(O)c(Br)c2c1-c1ccccc1 | x | -47% | -3% | 1.0%
O=C(O)c1cc(-c2ccc(/C=C3\NC(=O)N(c4ccc(Cl)cc4)C3=O)o2)ccc1Cl | -8 | -5% | u | u
COc1ccccc1-c1cc(C(F)(F)F)nc(S(=O)(=O)CCCC(=O)O)n1 | 2 | -2% | 8% | u
NS(=O)(=O)OCC(Cc1ccccc1)N1C(=O)c2ccccc2C1=O (stereo not given) | x | -1% | 20% | u
CCOc1cc(C(=O)Nc2nnc(CC)s2)ccc1OCC(=O)N1CCOCC1 | 4 | -2% | -4% | 4.7%
O=c1cc(CSc2nnc(NC3CCCCC3)s2)nc2sccn12 | -1 | -4% | -7% | 1.3%
CCc1ccc(NC(=O)CSc2nnc(CNC(=O)c3c(F)cccc3Cl)o2)cc1 | 3 | 2% | u | -0.6%
O=C(COc1cccnc1[N+](=O)[O-])c1c[nH]c2ccccc12 | -3 | -23% | 6% | -3.6%
Cc1ccc2nc(-c3ccc(NS(=O)(=O)c4ccc(F)cc4)cc3)sc2c1 | u | -74% | u | u
CCOC(=O)c1ccc(NC(=S)NC(=O)c2nn(CC)cc2Br)cc1 | -12 | -1% | -2% | 1.5%

# The list goes on:
Compound | GLA inh pH 4.5 | miR-21 FLuc | Rango release inh | Rango complex inh
COc1ccc(Oc2nc(-c3ccccc3)ncc2S(=O)(=O)c2ccccc2)cc1 | -7 | 0% | -4% | 7.8%
COCCn1c(SCC#N)nnc1-c1ccc(OC)cc1 | -2 | 1% | 11% | 2.0%
CCCC(=O)N1CC2(CCC)CN(C(=O)CCC)CC(CCC)(C1)C2=O | 5 | -5% | -3% | 0.0%
Cc1ccccc1C(=O)NC(=S)Nc1ccc(S(=O)(=O)N2CCOCC2)cc1 | 4 | -3% | 2% | 0.2%
COc1ccc(CN2CCN(C(=O)c3c(-c4ccccc4)noc3C)CC2)cc1F | x | x | 22% | 0.1%
CC(=O)N1CCCc2cc(S(=O)(=O)NCCC3=CCCCC3)ccc21 | 0 | 1% | -10% | 0.1%
CC(C)n1cnc2c(Nc3cccc(Cl)c3)nc(N(CCO)CCCO)nc21 | -1 | 30% | -17% | 12%
O=C1C2C3C=CC(CNS(=O)(=O)c4ccccc4)(O3)C2C(=O)N1c1ccc(Cl)cc1 (stereo not given) | -2 | 1% | -3% | 0.5%
O=C(COC(=O)COc1ccc(Br)cc1)NC1CCCCCC1 | x | x | -10% | -0.1%
O=c1cnc2ccccc2n1Cc1ccccc1C(F)(F)F | x | 0% | -12% | 0.9%
O=C(N/N=C\c1ccc([N+](=O)[O-])o1)c1cncc(Br)c1 | -2 | u | -4% | 3.3%
CC1C(C#N)=C(N)OC2=C1C(=O)CCC2 (stereo not given) | 4 | -1% | 8% | -0.5%
O=C(O)c1cc2c(ccc3ccccc32)oc1=O | u | -8% | x | x
Cc1ccc(-n2[nH]c(C)c(/C=N/Nc3ccc([N+](=O)[O-])cc3[N+](=O)[O-])c2=O)cc1C | -7 | -4% | 1% | -0.5%
O=C(CCCCCn1nnc2ccccc2c1=O)Nc1ccccc1Cl | x | 0% | -3% | 0.5%
N#CCCn1c(=O)n(CCC#N)c2ccccc21 | 10 | -4% | 13% | 0.2%

# This is a subset; count on the stated rates, not on these rows.
